# Screening data: PubChem, several laboratories
# PKD1 inh: inhibitors of human PKD1 kinase, biochemical, fluorescence polarization. Serine/threonine-protein kinase D1 (Homo sapiens), Q15139. PKD1 kinase fluorescence polarization assay. inhibition, %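 (about 10 µM by stock and volumes)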. 200,000 compounds, 0.056% hits. AID 797, 2007;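 active = inhibition of 50% or more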;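 note: controls were vehicle for no effect and a reference inhibitor for full effect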
# INS promoter inh: inhibitors of insulin promoter-driven GFP, primary screen, imaging, TRM-6 cells (human fetal islet line), eGFP reporter, cell count. reporter expression induced with tamoxifen. inhibition, % at 2 µM. 130,000 compounds, 0.9% hits. AID 1273, 2008;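 active = inhibition above the mean plus 3 SD, with well images judged a real hit on visual review, cut at about 60% in these data, passing the limit was not always enough; inconclusive = inhibition over the cutoff but images rejected on review; inactive = inhibition not above the cutoff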
# HSV replic up: enhancers of HSV replication in host cells, fold increase, host cell viability | HSV replication augmentation in cells | maximum fold increase | 220,000 compounds, 0.005% hits;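 active = peak rise of 1.5-fold or more in the series; inconclusive = self-fluorescent or not available for retest; tested in PC3 cells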;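 note: first round at 10 µM; read as green reporter fluorescence; hits show the peak of a series up to 25 µM; 1 = signal of infected wells without compound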
# RGS16-Gao HTS: modulators of RGS16 binding to Galphao, primary screen, biochemical, human proteins, multiplexed bead flow cytometry; Regulator of G-protein signaling 16 (Homo sapiens) + Guanine nucleotide-binding protein …; bead-based flow cytometry RGS16-Galphao binding, fluorescence; actives lie on both sides; binding response (% of control), % at 10 µM; 220,000 compounds, 0.38% hits; AID 1441, 2008;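 active = below 25% or above 175%, edge rows of some plates excepted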;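 note: Galphao activated by GDP with aluminum fluoride before binding; 100% = wells without compound and 0% = beads without RGS; some results beyond the cut were filed as inactive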
# Target sequence (O15492 whole entry, looked up): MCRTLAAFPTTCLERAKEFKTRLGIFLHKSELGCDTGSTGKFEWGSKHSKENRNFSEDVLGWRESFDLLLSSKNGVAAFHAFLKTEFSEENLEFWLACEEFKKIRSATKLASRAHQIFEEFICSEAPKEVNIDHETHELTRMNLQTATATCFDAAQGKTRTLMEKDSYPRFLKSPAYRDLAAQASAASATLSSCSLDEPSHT
# Target sequence (P09471 whole entry, looked up): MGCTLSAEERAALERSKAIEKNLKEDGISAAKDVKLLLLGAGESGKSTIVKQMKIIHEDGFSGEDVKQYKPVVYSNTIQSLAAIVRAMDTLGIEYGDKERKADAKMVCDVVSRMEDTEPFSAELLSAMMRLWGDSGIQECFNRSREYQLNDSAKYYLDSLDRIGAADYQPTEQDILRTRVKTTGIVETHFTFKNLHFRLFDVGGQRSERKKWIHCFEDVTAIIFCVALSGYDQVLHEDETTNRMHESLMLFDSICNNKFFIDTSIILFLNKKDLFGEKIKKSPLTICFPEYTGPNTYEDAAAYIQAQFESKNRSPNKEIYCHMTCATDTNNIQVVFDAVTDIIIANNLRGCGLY
# GALR2 agonist: GALR2 receptor agonists, primary screen, cell-based; Galanin receptor type 2 (Homo sapiens), O43603; GALR2-expressing cells, agonist activation read-out; activation, %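 (tested at 5 µM)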; 140,000 compounds, 0.48% hits; AID 803, 2007;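 active = above mean plus 3 SD of all compounds, about 5% in these data, not always enough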;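 note: 0% = vehicle buffer wells and 100% = reference agonist at full effect; tested in CHO reporter cells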
# Target sequence (O43603 whole entry, looked up): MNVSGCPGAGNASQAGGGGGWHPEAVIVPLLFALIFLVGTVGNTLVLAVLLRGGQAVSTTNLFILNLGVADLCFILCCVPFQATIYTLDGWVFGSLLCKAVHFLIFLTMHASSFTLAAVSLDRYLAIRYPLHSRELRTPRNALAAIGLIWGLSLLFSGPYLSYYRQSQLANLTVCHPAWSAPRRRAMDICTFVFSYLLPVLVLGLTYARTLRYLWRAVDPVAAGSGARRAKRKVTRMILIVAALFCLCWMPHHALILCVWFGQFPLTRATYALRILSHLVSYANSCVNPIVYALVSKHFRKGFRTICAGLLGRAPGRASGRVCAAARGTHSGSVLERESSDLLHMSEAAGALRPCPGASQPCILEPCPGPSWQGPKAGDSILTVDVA
# INS promoter inh cell count: also measured in INS promoter inh; calls as there; normalized cell count, %; measured here: cell count, toxicity; reference of the scale not given here;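 cells exposed to compound for 48 h; stained nuclei by imaging scaled within each plate; lower means fewer cells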
# HSV replic up primary fold: further read-out of HSV replic up, marked with its call; fold increase; compound at 10 µM; measured here: primary screen fold increase 10 uM; tested in PC3 cells;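 GFP signal in the first replicate; 1 = infected wells without compound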
# Numbers without * were called inactive; i = inactive; ? = inconclusive; · = not tested or not shown; & = joins results of further samples.
SMILES,PKD1 inh,INS promoter inh,INS promoter inh cell count,HSV replic up,HSV replic up primary fold,RGS16-Gao HTS,GALR2 agonist
CC(=O)Nc1ccc(S(=O)(=O)NC(C(=O)O)C(C)O)cc1 (stereo unspecified),·,·,·,i,0.92,99.6,·
CN1CC(=O)N(CC(=O)Nc2ccc(N(C)C)cc2)c2ccccc2C1=O,1.3,50.0,79.9,i,1.44,101.1,3.3
CC1CCN(C2(O)C(=O)Nc3ccc([N+](=O)[O-])cc32)CC1 (stereo unspecified),4.5,-12.9,88.2,i,1.05,104.8,-2.8
COc1ccc(/C(N)=N/OC(=O)c2ccc(C)c([N+](=O)[O-])c2)cc1,-0.3,-43.5,121.1,i,0.89,103.5,-2.5
COc1ccc(S(=O)(=O)N(CC(=O)N2CCN(c3ccccc3OC)CC2)c2ccccc2)cc1,-8.9,13.0,72.7,·,·,94.4,-1.4
Brc1cccc(-c2nc(-c3ccncc3)no2)c1,-1.3,6.1,94.9,i,0.97,97.1,-1.7
O=C(O)CCC(=O)N1N=C(c2ccccc2)CC1c1cccs1 (stereo unspecified),·,·,·,i,0.81,99.5,·
O=C(COC(=O)c1cc([N+](=O)[O-])ccc1NCCO)c1ccccc1,0.2,11.8,62.0,i,1.04,16.3,-0.2
CCCn1c(=N)n(CC(O)COc2ccc(C)cc2)c2ccccc21 (stereo unspecified),·,·,·,i,0.84,101.2,·
COc1cnc(-c2ccccn2)nc1Sc1ccc(Cl)cc1,0.2,·,·,i,0.77,102.1,-0.9
Cc1cc(C)nc(/N=C(/NC(=O)c2ccccc2)Nc2ccccc2)n1,-5.9,-62.5,92.7,i,0.95,119.9,-0.6
CC(/C=N/NC(=O)c1cc(C(C)C)[nH]n1)=C\c1ccccc1,-3.7,·,·,i,0.95,127.7,-0.8
COCCNC(=O)C(=O)NNS(=O)(=O)c1ccc2ccccc2c1,-1.5,33.3,109.6,i,1.03,72.2,·
O=C(Cn1cnnn1)Nc1cccc([N+](=O)[O-])c1,-6.0,·,·,i,0.97,101.3,·
Cn1ccs/c1=N\S(=O)(=O)c1ccc(F)cc1,-6.3,21.4,96.0,i,1.16,97.7,-0.1
CCOC(=O)c1sc2nc(CC(=O)OC)nc(NCc3ccc(Cl)cc3)c2c1C,-7.2,0.0,100.0,i,0.75,100.2,-3.1
O=C(Cn1cnc([N+](=O)[O-])n1)NCCc1ccccc1,-7.5,50.0,67.6,i,0.92,91.4,·
COc1ccc(N2CCN(CCNC(=O)c3ccc4c(c3)[nH]c(=S)n3c5ccccc5nc43)CC2)cc1,-1.6,·,·,i,0.61,102.7,·
C=C1c2ccccc2NC(=O)N1c1ccc(C)cc1,6.9,-7.4,45.0,i,1.16,101.7,-1.9
O=C(O)CCC(=O)Nc1cccc(-c2csc(-c3ccccc3)n2)c1,0.4,36.4,104.7,i,1.09,97.0,·
CC(C)CCn1nc(C(=O)OC(C)C(=O)NC(N)=O)c2ccccc2c1=O (stereo unspecified),-7.4,64.5,64.0,i,0.83,99.6,-1.5
CC(CN1CCOCC1)OC(=O)Cc1ccc(Cl)cc1 (stereo unspecified),-2.6,·,·,i,0.92,91.4,·
Cc1cc(C(=O)N/N=C/c2sc(N3CCOCC3)nc2-c2ccccc2)c(C)o1,0.2,28.6,100.4,i,1.02,98.2,·
O=C(CNC(=O)c1cccs1)NCC(=O)OCc1ccccc1Cl,-2.3,·,·,i,0.91,100.3,0.4
Cc1ccc(-c2csc3n[nH]c(=S)n23)cc1,-2.1,·,·,i,0.937,94.5,-2.4
# (continued)
SMILES,PKD1 inh,INS promoter inh,INS promoter inh cell count,HSV replic up,HSV replic up primary fold,RGS16-Gao HTS,GALR2 agonist
CNc1oc(-c2cccs2)nc1C#N,-3.2,·,·,·,·,106.6,0.3
CN(C)C(=O)c1coc2nc3ccccc3nc12,·,·,·,i,1.17,97.0,·
COCCNC(=O)C(c1c[nH]c2ccccc12)N(C(=O)c1snc(C(N)=O)c1N)c1cccc(OC)c1 (stereo unspecified),-1.9,8.3,62.6,i,0.76,82.3,·
CCOc1ccc(CCNc2nc3ccccc3n3cnnc23)cc1OCC,·,·,·,i,0.94,106.6,·
COc1cc(S(=O)(=O)Nc2ccccc2)ccc1NC=O,4.1,23.9,128.3,i,0.89,104.8,-2.6
Cc1ccc(Nc2nnc(SC/C(O)=C(\C#N)c3nc4ccccc4[nH]3)s2)c(C)c1,4.3,·,·,i,1.15,79.9,-1.5
O=C(NCCCN1CCCC1=O)C1CCCO1 (stereo unspecified),1.0,·,·,i,0.88,103.7,·
COc1cc2c(cc1NC(=O)CSc1cccc[n+]1[O-])oc1ccccc12,4.8,0.0,108.3,i,0.87,97.3,0.6
O=C(O)C1C2C=CC(C2)C1C(=O)NCc1cccs1 (stereo unspecified),3.0,·,·,i,1.12,110.3,·
Cc1cc(C(=O)OCC(=O)Nc2ccccc2[N+](=O)[O-])c2ccccc2n1,-4.4,-13.3,114.0,i,1.08,105.0,-1.0
Cc1coc2c1C(=O)C(=O)c1c-2ccc2c(C)cccc12,·,·,·,i,1.17,99.5,·
COC(=O)CCCC1=CC2=CC(=O)C(C)(OC(=O)c3cccs3)C(=O)C2=CN1CCc1c[nH]c2ccccc12 (stereo unspecified),·,·,·,i,0.9,96.0,·
Cc1cn2c(-c3ccncc3)nnc2s1,-3.0,·,·,·,·,95.3,-3.2
Cc1ccc(CNC(=O)CCn2nc(-c3ccc(Cl)cc3)ccc2=O)cc1,4.8,5.7,36.0,i,1.01,56.2,-1.1
COc1cc(OC)nc(NC(=O)COC(=O)c2cccc(Cl)c2)n1,6.0,·,·,i,0.91,102.2,·
Cc1cc(C)c(C)c(S(=O)(=O)Nc2ccc(C(N)=O)cc2)c1C,4.7,27.3,111.2,i,0.94,105.2,·
CCN(CC)S(=O)(=O)c1ccc(N2CCOCC2)c(NC(=O)c2c3c(nc4ccccc24)CCC3)c1,-7.6,·,·,i,1.08,97.2,-1.0
O=C(CCc1nc(-c2ccccc2F)no1)NC1CCN(Cc2ccccc2)CC1,-8.2,41.7,67.8,i,0.98,100.1,-0.5
CN(C)c1ccc2c3c(cccc13)C(=O)N(c1ccccc1)C2=O,-3.7,-30.0,131.8,?,·,118.5,·
O=C(CCCN1C(=O)/C(=C\c2ccccc2)SC1=S)Nc1ccc(O)cc1,-6.9,·,·,i,0.75,101.0,·
CC1CCCCN1C(=O)CSc1ccc(-c2ccc(F)cc2)nn1 (stereo unspecified),-5.8,35.7,124.0,i,0.84,102.4,-1.1
CCC(C)(C)NC(=O)C(c1ccco1)N(C(=O)CNC(=O)c1cccs1)c1cccnc1 (stereo unspecified),2.2,35.1,74.3,i,0.81,102.6,-1.5
COc1ccc(N2CCN(CCCNS(=O)(=O)c3ccc4c(c3)oc(=O)n4C)CC2)cc1,4.3,·,·,i,1.22,101.9,-2.1
c1cncc(-c2nc3ccccn3c2Nc2ccc3c(c2)OCCO3)c1,-24.9,·,·,·,·,111.4,-0.9
COc1ccc(N(Cc2ccccc2)C(=O)c2ccccc2[N+](=O)[O-])cc1,3.0,-6.9,93.0,i,1.18,91.6,-2.8

# A second format for some results above.
Compound | PKD1 inh | INS promoter inh | INS promoter inh cell count | HSV replic up | HSV replic up primary fold | RGS16-Gao HTS | GALR2 agonist
CC(=O)Nc1ccc(S(=O)(=O)NC(C(=O)O)C(C)O)cc1 (stereo unspecified) | · | · | · | i | 0.92 | 99.6 | ·
CN1CC(=O)N(CC(=O)Nc2ccc(N(C)C)cc2)c2ccccc2C1=O | 1.3 | 50.0 | 79.9 | i | 1.44 | 101.1 | 3.3
CC1CCN(C2(O)C(=O)Nc3ccc([N+](=O)[O-])cc32)CC1 (stereo unspecified) | 4.5 | -12.9 | 88.2 | i | 1.05 | 104.8 | -2.8
COc1ccc(/C(N)=N/OC(=O)c2ccc(C)c([N+](=O)[O-])c2)cc1 | -0.3 | -43.5 | 121.1 | i | 0.89 | 103.5 | -2.5
COc1ccc(S(=O)(=O)N(CC(=O)N2CCN(c3ccccc3OC)CC2)c2ccccc2)cc1 | -8.9 | 13.0 | 72.7 | · | · | 94.4 | -1.4
Brc1cccc(-c2nc(-c3ccncc3)no2)c1 | -1.3 | 6.1 | 94.9 | i | 0.97 | 97.1 | -1.7
O=C(O)CCC(=O)N1N=C(c2ccccc2)CC1c1cccs1 (stereo unspecified) | · | · | · | i | 0.81 | 99.5 | ·
O=C(COC(=O)c1cc([N+](=O)[O-])ccc1NCCO)c1ccccc1 | 0.2 | 11.8 | 62.0 | i | 1.04 | 16.3 | -0.2
CCCn1c(=N)n(CC(O)COc2ccc(C)cc2)c2ccccc21 (stereo unspecified) | · | · | · | i | 0.84 | 101.2 | ·
COc1cnc(-c2ccccn2)nc1Sc1ccc(Cl)cc1 | 0.2 | · | · | i | 0.77 | 102.1 | -0.9
Cc1cc(C)nc(/N=C(/NC(=O)c2ccccc2)Nc2ccccc2)n1 | -5.9 | -62.5 | 92.7 | i | 0.95 | 119.9 | -0.6
CC(/C=N/NC(=O)c1cc(C(C)C)[nH]n1)=C\c1ccccc1 | -3.7 | · | · | i | 0.95 | 127.7 | -0.8
COCCNC(=O)C(=O)NNS(=O)(=O)c1ccc2ccccc2c1 | -1.5 | 33.3 | 109.6 | i | 1.03 | 72.2 | ·
O=C(Cn1cnnn1)Nc1cccc([N+](=O)[O-])c1 | -6.0 | · | · | i | 0.97 | 101.3 | ·

# (more compounds)
SMILES,PKD1 inh,INS promoter inh,INS promoter inh cell count,HSV replic up,HSV replic up primary fold,RGS16-Gao HTS,GALR2 agonist
CCOc1ccc(C(N)=O)cc1OC,-2.8,50.0,110.2,i,0.89,98.8,-1.6
Nc1nc(CN2CCN(c3ccccn3)CC2)nc(Nc2ccc(F)cc2)n1,10.0,·,·,i,0.77,108.1,-0.6
O=S(=O)(NCc1c(Cl)cccc1Oc1ccccc1)c1ccc(F)cc1,·,·,·,i,1.03,103.5,·
O=C(NCc1ccco1)C1CC(c2ccc(F)cc2)=NO1 (stereo unspecified),·,·,·,i,0.8,97.1,·
CC(=O)Nc1c2c(nn1-c1cccc(Cl)c1)CS(=O)C2 (stereo unspecified),-17.0,·,·,i,0.88,101.3,-1.2
COC(=O)c1oc2ccc(Cl)cc2c1-n1cccc1,-4.9,-2.6,212.9,i,0.88,99.5,-0.1
O=C(NCc1nnc(SCc2ccc(F)cc2)n1-c1ccc(F)cc1)C12CC3CC(CC(C3)C1)C2,-3.2,·,·,·,·,104.0,0.2
O=C(O)CCCNC(=O)C(c1ccccc1)c1ccccc1,-6.2&0.4,21.4&28.0,136.9&109.4,i,0.97&0.9,116.0&98.9,0.4&-1.5
CCOCCCNC(=O)C(NC(=O)c1cnccn1)c1ccc(OC)cc1 (stereo unspecified),-3.4,-21.4,169.4,i,1.06,100.7,-3.6
O=C(/C=C/c1ccccc1)Oc1cccc(C(=S)N2CCOCC2)c1,-1.5,·,·,i,0.97,102.6,·
CCOc1ccc(-c2nnc3sc(COc4ccc(Cl)cc4)nn23)cc1,6.0,37.5,101.0,i,0.93,106.6,-0.2
N#CCSc1nc2scc(-c3cccs3)c2c(=O)n1CCc1ccccc1,-11.1,·,·,i,0.97,98.7,-0.4
Cc1ccc(CC2SC(=O)NC2=O)cc1Cl (stereo unspecified),-0.3,-8.8,141.6,i,0.86,100.5,-0.5

# Ordered by SMILES length (smallest number first): 3 of the compounds above
SMILES,PKD1 inh,INS promoter inh,INS promoter inh cell count,HSV replic up,HSV replic up primary fold,RGS16-Gao HTS,GALR2 agonist
COC(=O)c1oc2ccc(Cl)cc2c1-n1cccc1,-4.9,-2.6,212.9,i,0.88,99.5,-0.1
Nc1nc(CN2CCN(c3ccccn3)CC2)nc(Nc2ccc(F)cc2)n1,10.0,·,·,i,0.77,108.1,-0.6
O=C(NCc1nnc(SCc2ccc(F)cc2)n1-c1ccc(F)cc1)C12CC3CC(CC(C3)C1)C2,-3.2,·,·,·,·,104.0,0.2
